KCNQ2 block = KCNQ2 potassium channel inhibitors, primary screen, cell-based, CHO-K1, FluxOR thallium flux, B-score (AID 2156). B-score at 10 µM. 20 min; hits give low values; only compounds with negative scores are shown here; some inactives read as strong as hits. O88943. 310,000 tested, 1.1% active;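 active means fluorescence ratio B-score at most minus 3 library SDs, with starting brightness B-score within 2 library SDs, cut at about -5.5 in these data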
Target sequence (O88943 whole entry, looked up): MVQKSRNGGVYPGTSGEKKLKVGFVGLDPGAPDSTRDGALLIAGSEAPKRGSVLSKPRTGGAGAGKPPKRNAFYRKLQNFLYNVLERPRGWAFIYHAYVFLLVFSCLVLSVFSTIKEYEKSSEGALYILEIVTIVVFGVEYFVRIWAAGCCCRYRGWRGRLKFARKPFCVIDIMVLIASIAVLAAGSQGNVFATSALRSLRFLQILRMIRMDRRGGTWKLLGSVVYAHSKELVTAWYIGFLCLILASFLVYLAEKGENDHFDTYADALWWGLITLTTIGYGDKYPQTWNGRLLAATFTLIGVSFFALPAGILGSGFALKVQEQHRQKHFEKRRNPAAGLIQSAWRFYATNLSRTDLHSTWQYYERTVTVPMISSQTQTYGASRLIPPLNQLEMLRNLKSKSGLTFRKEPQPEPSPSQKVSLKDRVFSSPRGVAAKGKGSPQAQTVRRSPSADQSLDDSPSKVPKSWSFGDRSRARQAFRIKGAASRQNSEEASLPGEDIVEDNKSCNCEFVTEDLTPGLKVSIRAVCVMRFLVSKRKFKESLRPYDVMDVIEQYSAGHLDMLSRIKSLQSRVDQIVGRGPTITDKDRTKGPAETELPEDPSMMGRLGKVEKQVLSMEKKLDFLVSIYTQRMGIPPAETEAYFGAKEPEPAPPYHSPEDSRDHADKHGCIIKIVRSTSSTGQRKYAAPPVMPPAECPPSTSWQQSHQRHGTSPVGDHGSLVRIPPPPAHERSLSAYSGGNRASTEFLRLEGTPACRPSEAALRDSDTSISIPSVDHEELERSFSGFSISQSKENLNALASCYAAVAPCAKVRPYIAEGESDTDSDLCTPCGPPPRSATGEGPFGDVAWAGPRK
KCNQ2 block baseline = also measured in KCNQ2 block; calls as there; B-score; measured here: initial fluorescence intensity artifact check;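 brightness before thallium and not channel activity; 0 = typical well and far values either way flag optical interference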
Active calls of the source: *; i = inactive. An excerpt; the hit share may differ from the screen's.

SMILES | KCNQ2 block | KCNQ2 block baseline
COc1cccc2c1cc1c(=O)n(CC(=O)N3CCC(C)CC3)nc(C)n12 | i | -0.35
O=C1CC(N2CCCCC2)C(=O)N1c1ccccc1 (stereo not drawn) | i | 0.44
CCN(CC)S(=O)(=O)c1ccc(NC(=O)c2cc(=O)[nH]c3ccccc23)cc1 | i | 0.07
COc1cccc(NC(=S)N2CCN(C(c3ccccc3)c3ccccc3)CC2)c1 | i | -0.22
O=C(NCCOc1ccc(F)cc1)C1CCC(=O)N(CCN2CCOCC2)C1 (stereo not drawn) | i | -0.38
CCOC(=O)N1CCN(c2cc(=O)n(Cc3ccc(F)cc3)c(=O)[nH]2)CC1 | i | -0.06
Cn1c(NC(=O)C(C)(C)Oc2ccc(Cl)cc2)cc(=O)n(C)c1=O | i | -2.8
COc1ccc(NC(=O)c2ccc3ccccc3n2)cc1S(=O)(=O)N1CCCCC1 | i | 2.3
O=S(=O)(CCN1CCSCC1)c1ccc(Cl)cc1 | i | -2.6
CC(C)(ONC(=O)Nc1ccccc1Cl)C(=O)O | i | 1.5
COc1ccc([N+](=O)[O-])cc1NC(=S)NC(NC(C)=O)C(Cl)(Cl)Cl (stereo not drawn) | i | -0.98
Clc1ccccc1-c1nnc2sc(-c3ccccn3)nn12 | i | -1.6
COc1cc2c(cc1OC)-c1cc(OCc3ccccc3Cl)nc(=O)n1CC2 | i | -0.67
N=c1c2cn[nH]c2nc(SCC(=O)c2ccc(Br)cc2)n1-c1ccc(Br)cc1 | i | -0.53
COC(=O)c1ccccc1NC(=O)C1CCN(c2ncnc3c2nc2n3CCCCC2)CC1 | i | -0.54
C=CCn1c(COc2ccccc2)nc2ccccc21 | i | -0.12
O=C(Oc1ccc(/C=N/Nc2ccccc2)cc1)c1ccccc1 | i | 0.4
Cc1ccc(/C=C/C(=O)OCC(=O)NC(C)C)o1 | i | 2.2
Cc1ccc(S(=O)(=O)CNC(=S)c2cccc(Cl)c2)cc1 | i | -0.59
Cc1ccc2nc(C3CCN(C(=O)c4ccco4)CC3)[nH]c2c1 | i | -1.1
CCS(=O)(=O)N1CCN=C1SC(C)c1ccccc1 (stereo not drawn) | i | 0.35
Cc1ccc(C(=O)N/N=C2\CC3CC=CC23)c(C)c1 (stereo not drawn) | i | 0.04
O=C(CSc1nc2ccccc2c(=O)n1-c1ccc(F)cc1)Nc1ccc2c(c1)CCC2 | i | -2.1
Cc1cc(N)c2ccccc2n1 | i | -1.1
Cc1ccc(NC(=O)CC2Oc3ccc(C)cc3NC2=O)c(C)c1 (stereo not drawn) | i | 0.99

Fetched by compound from the entries so far, two records:
SMILES | KCNQ2 block | KCNQ2 block baseline
CCOC(=O)N1CCN(c2cc(=O)n(Cc3ccc(F)cc3)c(=O)[nH]2)CC1 | i | -0.06
Cc1ccc(NC(=O)CC2Oc3ccc(C)cc3NC2=O)c(C)c1 (stereo not drawn) | i | 0.99

The list continues.
SMILES | KCNQ2 block | KCNQ2 block baseline
Cn1ccnc1-c1ccc(-c2nccn2C)cc1 | i | 0.92
O=C(/C=C/c1cccc(Br)c1)N1CCN(c2cccc(C(F)(F)F)c2)CC1 | i | 0.59
Cc1ccc(CNC(=O)C2CCC(CNc3c(N4CCC(C)CC4)c(=O)c3=O)CC2)cc1 (stereo not drawn) | i | 1.1
COc1ccccc1NC(=O)CSc1nnc(C2CCCCC2)n1N | i | -1.1
O=C(NNC(=S)NC(=O)c1ccccc1[N+](=O)[O-])c1ccccc1[N+](=O)[O-] | i | 0.95
CC1(C)SC(=S)N(NC(=O)Nc2cccc3ccccc23)C1N(O)C(=O)Nc1ccccc1 (stereo not drawn) | i | 1.5
O=C(CN1C(=O)COc2ccccc21)N1CCCC1 | i | 0.72
O=C(Nc1cccc(S(=O)(=O)C(F)F)c1)c1ccc(S(=O)(=O)N2CCCCC2)cc1 | i | -0.78
COc1cc(S(=O)(=O)N2CCN(Cc3ccc4c(c3)OCO4)CC2)c(C)cc1C | i | 0.61
Clc1ccc2nc(-c3ccccc3)cn2c1 | i | -1.7
Cc1cccc(NS(=O)(=O)c2ccc3c(c2)CCC(=O)N3)c1 | i | -1.7
O=C(NC1CCN(C(=O)Nc2cccc(Cl)c2)CC1)c1ccco1 | i | 0.68
CCOc1ccc2nc(COC(=O)c3cccs3)c(C(=O)c3ccccc3)[n+]([O-])c2c1 | i | 0.01
CCOC(=O)N1CCN(C(=O)CN(c2ccc3c(c2)OCO3)S(C)(=O)=O)CC1 | i | 0.82
O=C1CCN(CCc2ccccc2)CCN1CCSc1ccc(Br)cc1 | i | -0.85
O=C(Nc1ccccc1)Nc1nc(-c2ccc(F)cc2)cs1 | i | 0.82
Cc1ccc(NC(=O)c2cccc(NC3=NC4CS(=O)(=O)CC4S3)c2)cc1C (stereo not drawn) | i | 0.14
Cc1ccn2c(=O)nc(SCC(=O)NCc3ccccc3)nc2c1 | i | -0.06
O=C(c1cc(COc2c(F)cccc2F)on1)N1CCC(c2ccncc2)CC1 | i | -0.38
O=C1c2ccccc2C(=O)N1CCCc1nc2ccccc2c(=O)n1CCCn1ccnc1 | i | 4.7
Cc1ccccc1OCc1nnc2n1CC(C)S2 (stereo not drawn) | i | 0.22
CCOC(=O)COc1c(OC)cc(Cl)cc1C1Nc2ccccc2C(=O)N1c1ccc(F)cc1 (stereo not drawn) | i | -0.11
CCCCn1c(N)c(N(CCOC)C(=O)c2cc3ccccc3cc2OC)c(=O)[nH]c1=O | i | 0.64
CCn1c(Cc2ccccc2)nnc1SCC(=O)Nc1ccccc1 | i | -0.37
CC(C)n1c(NCc2ccccc2O)nc2ccccc21 | i | -1.2

Remaining list, next part.
SMILES | KCNQ2 block | KCNQ2 block baseline
Cc1cccc(N(C(=O)C(F)(F)F)C(C(=O)NC2CCCCC2)c2cccs2)c1 (stereo not drawn) | i | -2.5
O=C1/C(=C/c2c[nH]c3ccccc23)CCC/C1=C\c1c[nH]c2ccccc12 | i | 1.1
CCOC(=O)/C(=C\c1cccnc1)C(=O)c1cc(C(C)=O)c(Nc2ccccc2)s1 | i | 2.6
COc1cccc(Oc2nc(-c3ccncc3)nc3ccccc23)c1 | i | -0.7
CCCCNC(=O)C1CCC(=O)N1CCc1ccccc1 (stereo not drawn) | i | -0.72
Cc1ccccc1OCc1nc2ccccc2c(=O)n1/N=C/c1ccco1 | -8.9* | -0.03*
CC(C)(C)c1cc[n+](C2=C([O-])c3ccccc3C(=O)/C2=N\S(=O)(=O)c2ccccc2)cc1 | i | -0.84
CCCCc1c(O)nc(SCC(=O)c2ccccc2)[nH]c1=O | i | 2.3
O=C(N/N=C/c1ccccc1[N+](=O)[O-])c1ccc(COc2ccccc2-c2ccccc2)cc1 | i | 0.02
COc1cc2c(cc1OC)C(COc1cccc(C(F)(F)F)c1)NCC2 (stereo not drawn) | i | 0.75
COc1cccc(NC(=O)C(=S)NC2CCCCC2)c1 | i | -0.05
Nn1c(SCC(=O)NC(=O)Nc2ccc3c(c2)OCCO3)nnc1C1CC1 | i | -1.3
COC(=O)C(C)Sc1ccc2nnc(-c3ccc(F)cc3)n2n1 (stereo not drawn) | i | -0.45
CCOC(=O)c1cnn(-c2nc(-c3ccccc3F)cs2)c1C(F)(F)F | i | -0.74
O=C(COc1ccc(S(=O)(=O)N2CCCC2)cc1)NCc1ccco1 | i | 0.6
CNC(=O)c1nc(C)n(-c2ccc([N+](=O)[O-])cc2)n1 | i | -1.3
CCO[C@@H]1OC(C(=O)NCc2ccccc2)=C[C@H](c2ccc(C(F)(F)F)cc2)[C@H]1CCCO | i | -2
CCOC(=O)c1c(NC(=O)Cc2cccs2)sc(C(=O)NC2CCCCC2)c1C | i | 0.24
O=C(Oc1ccc(Br)cc1)c1cncc(Br)c1 | i | 0.08
O=C(COc1ccccc1)Nc1c2c(nn1-c1ccccc1)CS(=O)C2 (stereo not drawn) | i | 0.54
CCOC(=O)C1(Cc2cccc(Cl)c2)CCCN(C(=O)c2cc(CC)on2)C1 (stereo not drawn) | i | 0.85
Fc1ccccc1CN1CCC(Cc2ccccc2)CC1 | i | -0.06
CCC1CCCCN1CCN1C(=O)C2C(C(=O)Nc3cccc(OC)c3)C3C=CC2(O3)C1C(=O)NC1CCCCC1 (stereo not drawn) | i | 0.43
COc1ccc(N(CC(=O)N2CCN(c3ccccc3F)CC2)S(=O)(=O)c2c(C)noc2C)cc1 | i | -0.8
N#C/C(=C(/O)c1ccco1)c1nc2ccccc2s1 | i | 0.49

In another format: entries from further up
Order of values – KCNQ2 block, KCNQ2 block baseline
COC(=O)C(C)Sc1ccc2nnc(-c3ccc(F)cc3)n2n1 (stereo not drawn)
→ i, -0.45
CCC1CCCCN1CCN1C(=O)C2C(C(=O)Nc3cccc(OC)c3)C3C=CC2(O3)C1C(=O)NC1CCCCC1 (stereo not drawn)
→ i, 0.43
CCCCNC(=O)C1CCC(=O)N1CCc1ccccc1 (stereo not drawn)
→ i, -0.72
COc1ccc(N(CC(=O)N2CCN(c3ccccc3F)CC2)S(=O)(=O)c2c(C)noc2C)cc1
→ i, -0.8
COc1cccc(Oc2nc(-c3ccncc3)nc3ccccc23)c1
→ i, -0.7

(next part)
SMILES | KCNQ2 block | KCNQ2 block baseline
COc1ccc(N2CCN(c3n[nH]c(N)n3)CC2)cc1 | i | -1.9
CSc1nsc(SC)c1NC(=O)OCCc1ccccn1 | i | 0.01
COc1ccc(C(=O)N2CC3(CC(c4cccc([N+](=O)[O-])c4)=NO3)C[C@H]2C(=O)NCC(N)=O)cc1 (stereo partly drawn) | i | -0.08
CC1=NN(c2ccccc2)C(=O)/C1=C/C=C/c1ccc(N(C)C)cc1 | i | -2.7
CCN1CC(CN(C)Cc2nc(-c3ccc(C(F)(F)F)cc3)oc2C)CC1=O (stereo not drawn) | i | 0.68
CCCCc1nc(N2CCN(C(=O)c3ccco3)CC2)c(C#N)c2c1CCCC2 | i | 0.3
CCOC(=O)N1CCN(C/C(Cl)=C/c2ccccc2)CC1 | i | 0.09
CCCSc1nnc(C(C)C)n1N | i | 1.1
Cc1noc(C)c1COc1cccc(C(=O)Nc2cccnc2)c1 | i | -0.13
CCOC(=O)c1[nH]c(C)c(C(=O)Nc2ccc(C)c(F)c2)c1C | i | 1.1
Cc1ccc(Sc2c([N+](=O)[O-])c(=O)n(C)c3ccccc23)cc1 | i | 2
COc1ccccc1NC(=O)c1ccc2c(c1)N(CC(=O)NC(C)C)C(=O)C(C)(C)O2 | i | 1.1
Cc1cc(/C=C2\SC(=S)N(C)C2=O)c(C)n1-c1cccc(O)c1 | i | 1.1
Cc1ccc(NC(=O)C(=O)c2ccc(C)cc2)cc1 | i | -1.5
N#CC(=C=[N-])c1nc2ccccc2nc1-[n+]1ccccc1 | i | -1.4
Cc1cc(C)n(C(=O)CCCCCCCCC(=O)n2nc(C)cc2C)n1 | i | 0.01
COc1ccc(S(=O)(=O)N(C)CC(=O)Nc2ccc(F)cc2)cc1 | i | -0.82
O=C(Cn1cc(C(=O)c2cccs2)c2ccccc21)NC1CCCCC1 | i | -0.96
COc1ccccc1CNC(=O)COC(=O)CCC(=O)c1cccs1 | i | 0.68
O=C(O)COc1ccccc1C1C2C(=O)N(c3ccccc3)C(=O)C2ON1c1ccccc1 (stereo not drawn) | i | -2.1
CC(NC(=O)c1ccccc1[N+](=O)[O-])C1CC2CCC1C2 (stereo not drawn) | i | 1.1
CCN(C(=O)COC(=O)c1ccc(Br)o1)C1CCCCC1 | i | -1.1
O=C(CN(Cc1ccc(Cl)cc1)C(=O)c1csnn1)NCc1ccc(F)cc1 | i | 3.3
CC(=O)n1nc(-c2ccncc2)nc1SCC(=O)Nc1cccc(Cl)c1 | i | -0.22
CN1CCNC(=O)C1CC(=O)O (stereo not drawn) | i | 1.6

Continuation:
SMILES | KCNQ2 block | KCNQ2 block baseline
CCCn1c(CCC(=O)O)nc2cc(S(=O)(=O)N3CCCC3)ccc21 | i | -0.79
Cc1cccc(-n2c(SCc3cc(=O)n4c(C)cccc4n3)nc3[nH]ncc3c2=O)c1 | i | -1.3
O=C(N/C(=C/c1ccccc1)C(=O)N1CCCCC1)c1ccccc1 | i | 0.16
CC1CCCN(C(c2cccs2)c2nnnn2Cc2ccccc2)C1 (stereo not drawn) | i | 0.58
N#C/C(=C/c1ccc(F)cc1)S(=O)(=O)c1ccccc1 | i | 0.54
Cc1nnc(SCC(=O)NC(C)(C)C)n1NCc1ccc(N(C)C)cc1 | i | 0.14
O=C(c1ccc(S(=O)(=O)c2ccc(Cl)cc2)cc1)N1CCOCC1 | i | 0.18
Cc1ccc(S(=O)(=O)c2c(CO)c(-c3ccccc3)nn2C)cc1 | i | 1.6
CCOc1ccc(CC(=O)NNC(=S)Nc2ccccc2)cc1Br | i | -0.27
COc1ccc(CN2C3CCCC2CC(NC(=O)Nc2cccc(C)c2)C3)cc1 (stereo not drawn) | i | 1.1
CN(Cc1ccccc1)C(=O)CN(Cc1ccccc1)S(C)(=O)=O | i | 1.4
O=C(COC(=O)/C=C/c1ccccc1)Nc1nnc(-c2ccccc2)o1 | i | 1.9
CN(CCNC(=O)C1CCCN(c2ncnc3c2nc2n3CCCCC2)C1)Cc1ccccc1 (stereo not drawn) | i | -0.05
CC(=O)c1c(C)n(CCc2ccc(Cl)cc2)c2ccc(O)cc12 | i | 1.4
CC(=O)Nc1cc(O)cc(O)c1 | i | -0.54
CCOCCCN(C)C1CCN(C(=O)c2oc3ccccc3c2NC(=O)Cc2cccc([N+](=O)[O-])c2)CC1 | i | 2.9

A stretch taken from the entries so far:
SMILES | KCNQ2 block | KCNQ2 block baseline
CCCn1c(CCC(=O)O)nc2cc(S(=O)(=O)N3CCCC3)ccc21 | i | -0.79
Cc1cccc(-n2c(SCc3cc(=O)n4c(C)cccc4n3)nc3[nH]ncc3c2=O)c1 | i | -1.3
O=C(N/C(=C/c1ccccc1)C(=O)N1CCCCC1)c1ccccc1 | i | 0.16
CC1CCCN(C(c2cccs2)c2nnnn2Cc2ccccc2)C1 (stereo not drawn) | i | 0.58

Shown with values ahead of the structure: 3 of the compounds above.
| KCNQ2 block | KCNQ2 block baseline | smiles |
| --- | --- | --- |
| i | 0.18 | O=C(c1ccc(S(=O)(=O)c2ccc(Cl)cc2)cc1)N1CCOCC1 |
| i | 1.6 | Cc1ccc(S(=O)(=O)c2c(CO)c(-c3ccccc3)nn2C)cc1 |
| i | -0.27 | CCOc1ccc(CC(=O)NNC(=S)Nc2ccccc2)cc1Br |

Screening data: PubChem BioAssay, Johns Hopkins Ion Channel Center
